# CDC25B-CDK2 inh: human CDC25B-CDK2/CyclinA binding inhibition | P30305+P24941 | HTRF CDC25B-CDK2/CyclinA binding, anti-His/anti-Flag; active compounds read high | hit rate 0.72% among 94,000 | z-score (no concentration beside the values);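 note: score is relative to mean and SD of negative controls; strong numbers were not always called active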
# TAR Tat displ: HIV-1 TAR-Tat binding disruption; HIV-1 TAR RNA, Tat peptide displacement FRET; active compounds read high; z-score (test concentration not listed); hit rate 0.6% among 100,000; AID 1259389;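 note: score is relative to mean and SD of negative controls; some compounds called inactive have numbers as strong as hits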
# * = called active by the depositor; · = not tested or not shown.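 Rule for the calls: active = z-score from 3 up in half or more of its runs; inactive = the rest.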 Rows are unselected; any-hit rate near 0.87%.
nr	canonical_smiles	CDC25B-CDK2 inh	TAR Tat displ
1	CN(C)C(=O)c1ccc2c(c1)NC(=O)C1CCCCN21 (configuration not stated)	·	1.53
2	O=C(NCc1cccs1)c1cnn2c3c(cnc12)CCCC3	·	0.2
3	Cc1cc(OC(=O)c2cccc(F)c2)n(-c2ccccc2)n1	-2.64	·
4	CCN1CCN(c2csc3ccc(Br)cc3c2=O)CC1	·	-0.22
5	CCCCOC(=O)Nc1ccc(N2CCOCC2)cc1	-3.74	1.15
6	CCOC(=O)c1c(C)oc2ncnc(NC(C)C)c12	·	-0.28
7	CC(CCc1ccccc1)NC(=O)c1cccc(NC2=NC3CS(=O)(=O)CC3S2)c1 (configuration not stated)	-2.33	·
8	O=S1(=O)N=CNc2ccc(S(=O)(=O)Nc3ccc(OCc4ccccc4)cc3)cc21	-1.08	-0.57
9	O=C(NCCN1CCOCC1)c1cc2c(s1)-c1ccsc1CC2	·	0.88
10	CCC(=O)c1cn(CC(=O)NCc2ccco2)c2ccccc12	-2.27	-0.94
11	CCOc1ccc(OCC)c(NS(=O)(=O)c2ccc3c(c2)NC(=O)C(C)CS3)c1 (configuration not stated)	·	-0.07
12	Cc1cc(Nc2nc3ccccc3n3cnnc23)c2ccccc2n1	-2.32	-0.62
13	CCOC(=O)c1c(C)[nH]c(C)c1C#N	1.64	1.29
14	CCN(CC)CCNC(=O)C1CCN(c2nn3c(=O)cc(C)nc3s2)CC1	-1.44	·
15	COc1ccc(Cc2nnc3c4cnn(Cc5ccccc5)c4ncn23)cc1	0.1	0.09
16	O=C(C1CCCN(S(=O)(=O)c2cnc[nH]2)C1)N1CCN(c2ccc(Cl)cc2)CC1 (configuration not stated)	0.41	·
17	CCC(C)NC(=O)Cn1c(=O)oc2ccccc21 (configuration not stated)	·	0.11
18	O=S1(=O)C[C@H](NCCc2ccc(Cl)cc2)[C@@H](S(=O)(=O)c2cccs2)C1	-1.34	-1.72
19	O=S(=O)(NCC(c1ccco1)N1CCN(c2ccccc2F)CC1)c1cccs1 (configuration not stated)	·	0.68
20	Cc1c(C(=O)N2CCN(c3ccccc3)CC2)sc2nc3n(c(=O)c12)CCC3	·	1.76
21	COc1cccc2c1CCC1CC(=O)CC[C@]21C (some centres not stated)	·	3.91
22	O=C(Nc1ccc(Cl)cc1)ONC(=O)c1ncc(C(F)(F)F)cc1Cl	-3.62	·
23	O=C(c1cnc2sc(N3CCCC3)nn2c1=O)N1CCN(Cc2ccc3c(c2)OCO3)CC1	·	-0.6
24	Cc1nc(S(=O)(=O)Nc2ccccc2C(=O)NCC2CC2)cn1C	-1.3	·
25	N#Cc1sc2sc(C#N)c(-c3ccc(Cl)cc3)c2c1N	-3.68	·
26	CCn1c(NC(C)c2cc(Cl)ccc2O)nc2ccccc21 (configuration not stated)	-2.51	1.24
27	Cc1ccc(NC(=O)Nc2sc3nc4n(c(=O)c3c2C)CCC(C)CC4)nc1 (configuration not stated)	1.66	0.13
28	Cn1c(Cn2c(=O)sc3ccccc32)nnc1SCC(=O)Nc1nccs1	-0.99	·
29	COCCCNC(=S)N/N=C/c1ccc(Cl)c(Cl)c1	-1.47	·
30	CC(C)OC(=O)C1C(=O)CC(C)(O)C(C(=O)OC(C)C)C1c1cccnc1 (configuration not stated)	-0.29	2.41

# Pulled one by one from the entries so far (seven):
nr	canonical_smiles	CDC25B-CDK2 inh	TAR Tat displ
16	O=C(C1CCCN(S(=O)(=O)c2cnc[nH]2)C1)N1CCN(c2ccc(Cl)cc2)CC1 (configuration not stated)	0.41	·
28	Cn1c(Cn2c(=O)sc3ccccc32)nnc1SCC(=O)Nc1nccs1	-0.99	·
26	CCn1c(NC(C)c2cc(Cl)ccc2O)nc2ccccc21 (configuration not stated)	-2.51	1.24
24	Cc1nc(S(=O)(=O)Nc2ccccc2C(=O)NCC2CC2)cn1C	-1.3	·
27	Cc1ccc(NC(=O)Nc2sc3nc4n(c(=O)c3c2C)CCC(C)CC4)nc1 (configuration not stated)	1.66	0.13
19	O=S(=O)(NCC(c1ccco1)N1CCN(c2ccccc2F)CC1)c1cccs1 (configuration not stated)	·	0.68
21	COc1cccc2c1CCC1CC(=O)CC[C@]21C (some centres not stated)	·	3.91

# More compounds
nr	canonical_smiles	CDC25B-CDK2 inh	TAR Tat displ
31	COC(=O)C1=CN(C2CC2)C=C(C(=O)OC)C1c1ccccc1Cl	-2.45	·
32	CCOc1ccc2c(c1)CN(c1cc(C)ccc1C)CO2	-1.04	-0.49
33	Cc1c(C(=O)N2CCN(c3ccc(F)cc3)CC2)sc2nc3n(c(=O)c12)CCC3	·	1.29
34	O=C(O)c1ccc(CNCc2cccnc2)s1	0.85	-0.34
35	O=C(NCc1ccc2c(c1)OCO2)c1cccc2c1OCCCO2	-1.81	·
36	Cc1ccc(C(CNC(=O)c2cc(=O)c3cc(Br)ccc3o2)N(C)C)o1 (configuration not stated)	0.83	1.57
37	Cc1ccc(-n2c(=O)c(C#N)cc3c(=O)n4cc(C)ccc4nc32)cc1	-0.46	-0.58
38	CCOc1cccc(-c2nc3c(c(=O)[nH]2)Cc2cccc(OCC)c2O3)c1O	0.25	7.23*
39	COc1ccccc1-c1nc(SCc2cc(=O)n3nc(CC(C)C)sc3n2)n[nH]1	·	1.11
40	CCC(C)N(CCNC(=O)Cn1nc(C)n2c(cc3sccc32)c1=O)C1CCCCC1 (configuration not stated)	-0.88	·
41	Fc1c(F)c(F)c(Sc2c(F)c(F)c3c(F)c(Sc4c(F)c(F)c(F)c(F)c4F)c(F)c(F)c3c2F)c(F)c1F	-7.33	·
42	Cc1ccc(/C=C/c2nn3c(-c4ccco4)nnc3s2)cc1	-1.84	-1.26
43	CCc1ccccc1NS(=O)(=O)c1cc(-c2noc(C)n2)cs1	·	1.3
44	N#Cc1ccccc1NC(=O)CSc1ncccn1	-1	·
45	CC(CCc1ccco1)Nc1nc(-c2ccccc2)no1 (configuration not stated)	·	0.78
46	CN(C)CCOC(=O)c1sc2ccccc2c1Cl	0.23	-0.35
47	COC(=O)CCn1cnc([N+](=O)[O-])n1	-0.22	·
48	N/C(=N\OC(=O)c1ccc(Cl)cc1)c1ccno1	-1.43	·
49	Cc1csc2nc(CSc3nnc4c(n3)[nH]c3ccccc34)cc(=O)n12	·	1.8
50	Cc1oc(S(=O)(=O)N2CCOCC2)cc1C(=O)Nc1ccc(Cl)cc1	-0.96	·
51	COc1cc(C2c3c(-c4ccccc4O)n[nH]c3C(=O)N2Cc2ccco2)cc(Br)c1O (configuration not stated)	2.12	1.22
52	O=C(Cn1cc(C(=O)c2ccccc2)c(=O)c2cc3c(cc21)OCCO3)Nc1ccc2c(c1)OCO2	-0.73	2.09
53	Fc1ccc(C2C=C(c3cccnc3)Nc3nc4ccccc4n32)cc1 (configuration not stated)	-2.21	·
54	CCc1nc(-c2csc(S(=O)(=O)N3CCC(C(=O)N4CCc5ccccc5C4)CC3)c2)no1	·	1.31
55	Cc1ccc(S(=O)(=O)[C@H]2CS(=O)(=O)C[C@@H]2NCc2ccccn2)cc1	-2.25	1.89
56	CCCn1c(Br)nc2c1c(=O)[nH]c(=O)n2C	-1.44	0.91
57	O=C(Cn1cnc(S(=O)(=O)N2CCc3ccccc32)c1)Nc1ccc(F)cc1Cl	·	0.35
58	Cc1cc2nc(NCCCO)[nH]c2cc1C	-1.09	1.22
59	Cc1ccc(C2=NC3(CCC(C(C)(C)C)CC3)NC2=O)cc1 (configuration not stated)	-1.23	·
60	O=C(Nc1ccc(Br)cc1F)c1ccc(-c2cc(Cl)ccc2Cl)o1	-2.22	·
61	Cc1ccc2nc(N3CCN(c4ccccc4F)CC3)c3nncn3c2c1	-2.04	0.63
62	CCOc1ccc(S(=O)(=O)n2ccnc2C(C)C)cc1C	-0.83	3.61
63	COC(=O)c1ccc(N2CCCc3ccccc32)s1	-4.49	0.14
64	COc1cc(OC)cc(C(C)(C)OC(=O)NN)c1	-0.84	·
65	Cc1nc([N+](=O)[O-])c(Br)n1Cc1ccccc1	-1.28	2.06
66	O=c1oc(/C=C/c2ccccc2)nc2sc3c(c12)CCC3	0.85	1.55
67	CCOC(=O)c1c(-c2ccco2)csc1NC(=O)Nc1ccc(Cl)cc1	-1.75	·
68	O=C(NCCCN1CCOCC1)C1CCN(c2nc3cccnc3s2)CC1	·	0.42
69	CCCCSC1=NC(=O)CC(=O)N1	-0.23	·
70	CC1=C(C(N)=O)C(c2ccc(Cl)cc2)n2nc(-c3ccc(N(C)C)cc3)nc2N1 (configuration not stated)	-2.07	2.4
71	CCOC(=O)Cn1cc2c(c1-c1ccc(Br)cc1)c(=O)n(C)c(=O)n2C	-0.77	0.91
72	CC(/C=C/c1cccc(Oc2ccc(F)cc2)c1)N(O)C(N)=O (configuration not stated)	-1.89	·
73	COc1ccc(-c2ccc(NS(=O)(=O)c3cc(C)c(Cl)cc3C)cc2)nn1	·	-0.04
74	O=C(CCc1nnc2ccc(N3CCCC3)nn12)N1CCOCC1	·	-0.02
75	COc1cccc(Nc2cc(N3CCN(C)CC3)c3noc4c3c2C(=O)c2ccccc2-4)c1	10.9*	0.5

# 3 structures out of the list, sorted by molar mass, lowest first:
nr	canonical_smiles	CDC25B-CDK2 inh	TAR Tat displ
10	CCC(=O)c1cn(CC(=O)NCc2ccco2)c2ccccc12	-2.27	-0.94
31	COC(=O)C1=CN(C2CC2)C=C(C(=O)OC)C1c1ccccc1Cl	-2.45	·
11	CCOc1ccc(OCC)c(NS(=O)(=O)c2ccc3c(c2)NC(=O)C(C)CS3)c1 (configuration not stated)	·	-0.07

# (more compounds)
nr	canonical_smiles	CDC25B-CDK2 inh	TAR Tat displ
76	COc1ccc(NC(=O)CSc2nc3ncccc3o2)cc1Cl	·	0.73
77	CN(Cc1ccccc1)C(=O)c1cccc(NC(=O)[C@H]2[C@@H]3C[C@@H]4[C@H]2C(=O)O[C@@H]4C3)c1	-0.9	-3.74
78	O=C1CCc2cc(S(=O)(=O)NC(C(=O)NCc3ccco3)c3ccccc3)ccc2N1 (configuration not stated)	0.19	·
79	O=C(Cc1ccc(NC2=NC3CS(=O)(=O)CC3S2)cc1)N1CCCCCC1 (configuration not stated)	-2.33	·
80	OC1CCCCC1N1CCC(c2ccccc2)C1 (configuration not stated)	-0.57	0.49
81	O=C(Nc1ccc(Cl)cc1)c1nc2ccccc2s1	·	0.86
82	O=c1nc2c(-c3c(F)cccc3Cl)n[nH]n2c2ccccc12	0.09	0.63
83	CCOc1ccc(S(=O)(=O)[C@H]2CS(=O)(=O)C[C@@H]2NCC(C)C)cc1	-2.33	1.6
84	Cc1noc(C(=O)NC(C)C)c1Cl	-0.07	1.48
85	Cc1ccc(N2CCCS2(=O)=O)cc1NS(=O)(=O)c1ccc(F)cc1	·	0.16
86	C=CCOC(=O)C1=C(C)Nc2nc(SCC=C)[nH]c(=O)c2C1c1cccc(C)c1 (configuration not stated)	-0.78	0.54
87	O=c1[nH]nc(-c2ccccc2)c2c1Nc1nnnn1C2c1ccc(Cl)cc1 (configuration not stated)	-0.66	-1.11
88	O=C(NCc1ccc2c(c1)OCO2)c1cc(-c2ccc(F)cc2)no1	·	2.75
89	CCOC(=O)CSc1nnc(CSc2nc(C)cc(C)n2)n1-c1ccc(OC)cc1	-1.07	-0.49
90	Cn1c2ccccc2c2cnn(CC(=O)Nc3ccc(F)cc3F)c(=O)c21	0.6	-0.14
91	CSc1sc(C(=O)O)cc1-c1nc(-c2ccc(Cl)cc2)cs1	-0.88	·
92	Cc1cc2c(cc1NC(=O)C(C)C)n(C)c(=O)n2C	·	0.64
93	Cc1cc(C(=O)Nc2c(-c3ccccc3)c(C(F)(F)F)nn2C)no1	-2.45	·
94	Cc1ccc(-n2c(=O)c3c(c4cc(C)ccc4n3C)n(C)c2=O)cc1	·	1.22
95	CCOc1ccc(C2C(C(=O)OC)=C(C)NC3=C2C(=O)c2ccccc23)cc1 (configuration not stated)	0.76	-3.8
96	COc1cccc2c1OC1(CCC(C)CC1)N1N=C(c3cccs3)CC21 (configuration not stated)	-0.9	·
97	COC(=O)CSc1ncn(-c2cc(C)nc(N)n2)n1	-1.61	0.77
98	CC(=O)N1CCCc2cc(S(=O)(=O)N3CCCC(C(=O)NC4CC4)C3)ccc21 (configuration not stated)	·	0.95
99	C=CCNc1oc(/C=C/c2ccccc2OC)nc1C#N	-1.18	1.4
100	CCOC(=O)C(NC(=O)CCc1c(C)nc2c(c1C)c(=O)n(C)c(=O)n2C)C(C)C (configuration not stated)	-1.83	0.83
101	CCOC(=O)C1=C(C)NC2=C(C(=O)CCC2)C1c1cc(OC)ccc1OC (configuration not stated)	-1.1	1.28
102	Cc1ccc(-c2noc(CN(C)S(=O)(=O)c3c(C)cc(C)cc3C)n2)cc1	-0.91	2.45
103	Cc1ccccc1C1C(CN2CCOCC2)=C(c2ccccc2)Oc2ccccc21 (configuration not stated)	-1.5	·
104	Cc1nn(CC(=O)O)c(=O)c2c1sc1ccccc12	-1.23	-0.35
105	O=C(O)CCS(=O)(=O)Cc1ccccc1Cl	·	2.33
106	CCC(=O)N1CCc2cc(S(=O)(=O)NC(C(=O)NC3CCCCC3C)C(C)C)ccc21 (configuration not stated)	-2.64	·
107	COC(=O)C(OC(=O)c1cnn2c(C(F)(F)F)cc(-c3ccccc3)nc12)c1ccccc1 (configuration not stated)	-0.9	0.94
108	COC(=O)c1cc(=O)[nH]c2ccccc12	·	1.68
109	Cc1sc(NC2=NS(=O)(=O)c3ccccc32)nc1-c1ccccc1	-0.64	-1.07
110	C#CCSc1nccc(-c2sc3ccc(Cl)cc3c2C)n1	-2.66	·
111	COc1ccc(-c2n[nH]c(=O)c(Cc3ccco3)n2)cc1	·	3.08
112	COc1cccc(N2C(=O)c3cccnc3C2Nc2cc(Cl)c(OC)cc2OC)c1 (configuration not stated)	·	2.09
113	COC(=O)c1ccc(CC2CCCC2=O)o1 (configuration not stated)	-1.62	·
114	CCCn1cc(S(=O)(=O)c2cccc(Cl)c2)c(=O)c2cc(F)c(N3CCN(CC)CC3)cc21	·	0.11
115	Cc1nc(SCC(=O)Nc2sc3c(c2C#N)CCC3)cc(-c2ccccc2)n1	-0.21	0.83

# Source: PubChem BioAssay (Center for Chemical Genomics, University of Michigan)
